High-throughput results deposited in PubChem by National Center for Advancing Translational Sciences (NCATS).
DT40 TDP1 CPT: DT40-hTDP1 cell growth loss with CPT. chicken DT40 Tdp1-/-;hTDP1 cells + 20 nM CPT, ATP luminescence, 48 h. Potency, µM (series often up to 46.2 µM), without a hit: top-dose activity change, negative = growth inhibition, actives largely listed as inhibitors. 420,000 tested, 12% active; note: nearly all actives have a fitted effect of over 55% in size
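Chicken DT40 Tdp1-/- cells stably complemented with human TDP1 were seeded at 400 cells/well in medium containing 20 nM camptothecin, exposed to pin-transferred compounds, and grown at 37 °C for at least 48 hr. Viability was read as ATP luminescence.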
N370S GC mod: inhibitors or activators of N370S glucocerebrosidase for Gaucher disease; P04062; N370S GC spleen homogenate, 4MU-glucoside fluorescence; Potency, µM (series often up to 59.4 µM), for inactives: at the top dose activity change, negative = inhibition, actives largely listed as inhibitors; 330,000 tested, 0.092% active; AID 2101;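 note: 0% = full enzyme activity and -100% = no enzyme basal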
* marks the source's active call; other numbers are inactive results; ? = inconclusive; . = no result given. Calls come from the whole dose curve; as a rule, active = well fitted curve in the direction sought with a large enough effect; inconclusive = small, poorly fitted or top-dose-only effect, or another doubt; inactive = no such curve, though single readings can be large; an effect the other way counts as inactive or inconclusive. Unless noted, % is set by controls: 0 for no effect and ±100 for the full control effect; potency is the fitted concentration of half-maximal effect. This is a subset; most or all hits stand in other tables.

molecule	N370S GC mod	DT40 TDP1 CPT
CCOC(=O)c1c(C)n(C)c2ccc(OCC(O)CN3CCC(C)CC3)cc12 (stereo not given)	-7%	?
COCC(C)N1CCC(n2nccc2NC(=O)CCOc2ccccc2)CC1 (stereo not given)	-1%	-2%
Cc1nc(CSc2nsc(/C=C/N(C)C)c2C#N)cs1	-11%	4%
Cc1cc(C)nc(Nc2ncc(O)n2-c2ccc(C)c(Cl)c2)n1	7%	-9%
Cc1oc(C(=O)Nc2ccc(C(=O)O)cc2)cc1COc1ccccc1	23%	-7%
C/C(=N\N=C1\NC(=O)C(CC(=O)Nc2ccc(C)c(Cl)c2)S1)C(C)C (stereo not given)	-2%	3%
Cc1n[nH]c(C)c1S(=O)(=O)N1CCC(C(=O)N2CCn3c2nc2ccccc23)CC1	-7%	?
COc1ccc(S(=O)(=O)Cc2ccc(C(=O)NC3CCCC3)o2)cc1	-1%	-18%
CCOc1ccc(CCNC(=O)CCCN2C(=O)c3ccccc3C2=O)cc1OCC	-6%	-8%
Cc1ccccc1NC(=O)c1ccc(F)c(S(=O)(=O)N2CCN(c3ccccn3)CC2)c1	-1%	28µM*
COc1cccc(C(=O)Nc2cc(C)c3c(=O)oc4ccccc4c3n2)c1	-1%	?
N/C(=N\N=C\c1cccc(O)c1)c1nonc1N	-2%	?

Two consecutive records out of the list so far, for reference:
molecule	N370S GC mod	DT40 TDP1 CPT
COc1cccc(C(=O)Nc2cc(C)c3c(=O)oc4ccccc4c3n2)c1	-1%	?
N/C(=N\N=C\c1cccc(O)c1)c1nonc1N	-2%	?

New compounds follow:
molecule	N370S GC mod	DT40 TDP1 CPT
CC(C)CN(C(=O)COC(=O)c1cnc(Cl)c(Cl)c1)c1c(N)n(Cc2ccccc2)c(=O)[nH]c1=O	-15%	-24%
CCC(N=c1cc(-c2ccc(OC)c(OC)c2)oc2ccc(C)cc12)C(=O)O (stereo not given)	-7%	5%
CCOC(=O)c1[nH]c2ccc(Cl)cc2c1-c1ccccc1	4%	?
CCn1c(C(=O)O)c(CC(=O)NC2CCCCCC2)c2ccccc21	12%	-1%
N#Cc1ccccc1NC(=O)c1ccc2c(c1)OCCO2	0%	-6%
O=C(COc1ccc(Cl)cc1Cl)Nc1ccccc1NS(=O)(=O)c1cccs1	9%	-37%
COc1ccc(NC(=O)C2CCCN(c3cnccn3)C2)cc1 (stereo not given)	-4%	15%
OC(Cc1ccncc1)(c1ccccc1)c1ccccc1	0%	?
CC(C)(C)OC(=O)NNC(=O)c1ccc(Cl)cc1	1%	0%
COc1ccccc1C(=O)NC(CCSC)C(=O)OCC(=O)NC(=O)NCc1ccco1 (stereo not given)	6%	-7%
CCOc1ccc(OCCC(=O)OCC(=O)Nc2ccc(Cl)cn2)cc1	-2%	-2%
COc1cc(Cl)c(C)cc1NC(=O)CCN1C(=O)NC(C)(C)C1=O	-5%	18%
C=CCN1C(=O)C(CC(=O)O)SC1=Nc1cccc([N+](=O)[O-])c1 (stereo not given)	8%	-3%
C[C@@H](C(=O)NCCc1ccccc1)N1C(=O)N2CCc3c([nH]c4ccccc34)[C@@]2(C)C1=O	-17%	18µM*
COc1cc(C(=O)Nc2scc(-c3ccc(Br)cc3)c2C(=O)O)cc(OC)c1OC	-15%	-16%
CCN(C[C@H]1N[C@@](C)(C(=O)OC)[C@H]2C(=O)N(C)C(=O)[C@@H]12)C(=O)c1ccc(F)cc1	.	-5%
C[C@H]1CCC2[C@](C)(CO)[C@@H](O)CC[C@]2(C)[C@@]12CCC(CO)(CCO)O2 (stereo not given in full)	5%	18%
O=C(Cn1nnc(-c2ccc(Cl)cc2)n1)NCc1ccc(F)cc1	.	-10%
CCC1SC(CC)C(=O)N(CC(=O)Nc2ccc3c(c2)OCO3)C1=O (stereo not given)	-5%	10%
CN(C)c1cccc(C(=O)NC2CCCCCC2)c1	8%	-5%
N[C@@H](Cc1ccc(F)cc1)C(=O)O	1%	?
O=c1cc(CSc2nnc(-c3ccco3)o2)c2ccccc2[nH]1	-10%	?
CC(=O)c1cc(C)c(OCc2cn(CC(=O)c3ccc(O)cc3)nn2)c(C)c1	.	-1%
COCCCNC(=O)c1ccc(N2CCCC2)c(NS(=O)(=O)c2ccc(C)cc2)c1	-3%	-27%
O=C(O)[C@@H]1Cc2ccccc2N1	-7%	3%
COc1ccccc1NC(=O)CCSc1nnc(-c2ccco2)o1	6%	7%
COCCn1c(=N)c(C(=O)NCc2ccco2)cc2c(=O)n3ccccc3nc21	0%	4%
COc1ccc(OC)c(NC(=O)COC(=O)Cn2nnc(-c3ccccc3)n2)c1	.	-18%
COc1ccccc1N1C(=O)c2ccccc2NC1c1ccc(O)cc1 (stereo not given)	-13%	?
COc1ccc(S(=O)(=O)NCC2CCCN(C(=O)CNC(C)=O)C2)cc1 (stereo not given)	-21%	-4%
Cc1c(CCC(=O)N[C@@H](C)C(=O)O)c(=O)oc2c(C)c3oc4c(c3cc12)CCCC4	?	-10%
C=CCOc1ccc(C=Nc2ccc(C)c(Cl)c2)c(O)c1	23%	0%
O=C(O)CC(c1ccc(Cl)cc1)n1cccc1 (stereo not given)	-1%	-6%
O=C(NCc1ccccc1)C(=O)NCC1OCCN1C(=O)c1cccs1 (stereo not given)	-1%	-2%
CC(=O)Oc1ccc(-c2nc3ccccc3c(=O)o2)cc1	-1%	0%
COc1ccc(N2C(=O)S[C@@H]3CS(=O)(=O)C[C@@H]32)cc1	2%	4%
O=C(NCCc1ccccc1Cl)C1CCC(=O)N(Cc2ccc(Cl)cc2)C1 (stereo not given)	-25%	-16%
COc1cc(OC)cc(C(=O)N[C@H](C(=O)Nc2ccc(NC(C)=O)cc2)C(C)C)c1	-8%	20%
COc1cccc2cc(C(=O)n3ccc(C)n3)c(=O)oc12	13%	3%
Cc1cc(C)n(-c2ccc(Oc3ccccc3)c(S(=O)(=O)O)c2)n1	-3%	6%
Cc1ccc(Cc2c(C)nc3nc(SCC(=O)NCc4ccco4)nn3c2C)cc1	2%	3.3µM*
Cc1ccc(NC(=O)CN2CCC(Cc3ccccc3)CC2)cc1S(=O)(=O)N(C)C	-11%	?
CN1CCN(CC(O)COc2ccccc2)CC1 (stereo not given)	-10%	2%
O=C(Nc1nc(-c2ccccc2)cs1)C1c2ccccc2Oc2ccccc21	9%	-22%
O=C(OCc1cc(=O)n2ccsc2n1)c1ccccc1O	.	2%
CN(C)S(=O)(=O)c1ccc(C(=O)Nc2ccc(S(=O)(=O)NC3=NCCCCC3)cc2)cc1	14%	-16%
O=C(NCCCN1CCOCC1)c1cc(-c2ccccc2)nc2ccccc12	-16%	1%
CCC(CC)NC(=O)/C=C/c1ccccc1Cl	2%	?
CCOc1ccc(C(=O)NCC(=O)NNC(=O)CN(C)S(=O)(=O)c2ccc(Cl)cc2)cc1	-10%	-2%
CCC(C)NC(=O)c1ccc(CSCc2ccc(Cl)cc2)o1 (stereo not given)	-2%	-25%
Cc1ccccc1NC(=O)Cc1nc(COC(=O)COc2cccc(C)c2C)cs1	15%	13%
Cn1c(S(=O)(=O)O)nc2ccccc21	-3%	-7%
O=C(CCCC(=O)c1ccccc1)NCc1ccccc1	-13%	4%
NC(=O)c1ccccc1NCC(=O)c1ccc(F)cc1	2%	-28%
COCc1ccc(C(=O)N(C)CC2CCCN(CCc3ccc(OC)cc3)C2)o1 (stereo not given)	-3%	-7%
Cc1ccc([N+](=O)[O-])cc1-c1ccc(/C=N\n2nnnc2N)o1	-17%	-5%
CS(=O)(=O)N(CC(=O)NCc1ccccn1)Cc1ccc(Cl)cc1	-1%	-2%
Cc1nn(Cc2ccccc2)c2c1C(c1cccc(Cl)c1)C(C#N)=C(N)O2 (stereo not given)	5%	23µM*
COCCN1C(=O)C(=O)/C(=C(/O)c2ccc(OC(C)C)cc2)C1c1cccnc1 (stereo not given)	-20%	9%
COc1ccc(CCN(C)C(=O)CSc2nnnn2C)cc1OC	-15%	7%

The results go on:
molecule	N370S GC mod	DT40 TDP1 CPT
Cc1ccccc1NS(=O)(=O)c1ccc(Cl)cc1	-11%	-16%
COCCN(CCOC)C(=O)C1CCCN(S(=O)(=O)c2ccc(NC(=O)OC)cc2)C1 (stereo not given)	-10%	?
CN1CCN(CCc2nc3cc(NC(=O)COc4ccc([N+](=O)[O-])cc4)ccc3n2C)CC1	0%	-1%
O=C(O)CCCNC(=O)c1cncc(Br)c1	3%	0%
Cc1noc(NS(=O)(=O)c2ccc(NC(=O)CCN3C(=O)c4ccccc4C3=O)cc2)c1C	0%	4%
COc1cc(NC(=O)C(C)C)ccc1NC(=O)c1ccco1	-1%	6%
CC(/C=N/NC(=O)CSc1nc(C)cc(C)n1)=C\c1ccccc1	-2%	?
CC(C)C[C@H](NC(=O)c1nc[nH]c1C(=O)N[C@@H](CC(C)C)C(=O)OC(C)(C)C)C(=O)OC(C)(C)C	17%	23µM*
Cc1ccc(C(=O)Nc2ccc(N3CCN(C)CC3)cc2)c(Cl)c1	-7%	-10%
CC(C)(NO)/C(=N/O)c1cccs1	3%	-1%
O=C(NCc1ccccc1)C(c1cccs1)N(C(=O)c1csnn1)C1CC1 (stereo not given)	8%	2%
COC(=O)CNC(=O)COC(=O)c1ccc(Cl)nc1	4%	-25%
Cc1nn(C)cc1/C=N\NC(=O)c1csc2c1CCCC2	9%	?
CCn1c(/C=C/c2ccccc2)nc2ccccc21	-4%	?
C=CC[N+](C)(C)c1ccc(CCC(=O)CCc2ccc([N+](C)(C)CC=C)cc2)cc1	-2%	-1%
Cc1cc(CN(C)C)c(O)c(C2(C)CCCCC2)c1	3%	-30%
CN(C)Cc1c(C(=O)N/N=C/c2cccc(OCc3ccc(F)cc3)c2)nnn1-c1nonc1N	0%	-2%
O=C(CN1C(=O)C2C3CCC(C3)C2C1=O)OCC(=O)c1ccc(Br)cc1 (stereo not given)	-20%	-18%
CCN1C(=O)C(O)(CC(=O)c2ccc3c(c2)OCCO3)c2ccccc21 (stereo not given)	-2%	-8%
c1ccc(-n2ncc3c2ncn2nnnc32)cc1	7%	-20%
Cc1ccc(C)c(Cn2cnc3c(nnn3-c3ccc(F)cc3)c2=O)c1	15%	-2%
CN1C2CCC1CC(NC(=O)c1ccc([N+](=O)[O-])cc1)C2 (stereo not given)	-6%	-12%
Cc1cc(C)c(-n2c(O)c(C=NCCN3CCOCC3)c(=O)[nH]c2=O)c(C)c1	-24%	-12%
O=c1[nH]c(=O)n(Cc2ccccc2)c2nc(-c3ccc(C(F)(F)F)cc3)n(CCO)c12	23%	?
Cc1ccc(N2C(=O)c3ccccc3C2=O)cc1Cl	-3%	-2%
Nc1nc(-c2cccnc2)nn1C(=O)c1ccccc1Cl	-20%	3%
CC(=O)c1ccc([N+](=O)[O-])c(CS(=O)(=O)c2ccc(Cl)cc2)c1	-13%	-19%
COC(=O)c1ccccc1NC(=S)NC(=O)c1ccccc1C	0%	23µM*
Cc1cccc(CCNC(=O)CCc2nc(-c3ccccc3F)no2)c1	1%	-24%
Nc1ccc2nn(-c3cc([N+](=O)[O-])ccc3O)nc2c1	3%	-15%
O=C(O)C1C2CCC(CC2)C1C(=O)O (stereo not given)	.	-4%
CCCn1c(=O)c2sccc2n2c(CCCC(=O)NCc3cccnc3)nnc12	-11%	-13%
COc1ccc(CC(=O)NC(C)c2nnc(SCC(=O)c3ccc(Br)cc3)n2C)cc1 (stereo not given)	-5%	-19%
COc1ccccc1CCNC(=O)c1nc(-c2cccs2)no1	0%	-9%
O=C(c1ccc(Cl)cc1)c1cc(-c2ccccn2)c(N2CCOCC2)s1	?	-28%
O=C(Cn1cnc2ccccc2c1=O)Nc1ccc2c(c1)OCO2	11%	3%

Look-ups from the entries so far.
O=C(O)C1C2CCC(CC2)C1C(=O)O (stereo not given) | DT40 TDP1 CPT = -4%
Cc1cccc(CCNC(=O)CCc2nc(-c3ccccc3F)no2)c1 | N370S GC mod = 1%
COC(=O)c1ccccc1NC(=S)NC(=O)c1ccccc1C | N370S GC mod = 0%
O=C(c1ccc(Cl)cc1)c1cc(-c2ccccn2)c(N2CCOCC2)s1 | DT40 TDP1 CPT = -28%
Nc1nc(-c2cccnc2)nn1C(=O)c1ccccc1Cl | N370S GC mod = -20%
COc1ccc(CC(=O)NC(C)c2nnc(SCC(=O)c3ccc(Br)cc3)n2C)cc1 (stereo not given) | DT40 TDP1 CPT = -19%

Next part:
molecule	N370S GC mod	DT40 TDP1 CPT
CCOC(=O)c1c(NC(=O)CSc2ncccn2)sc(C(=O)NC)c1C	-5%	?
O=c1[nH]cc(S(=O)(=O)Nc2ccc3c(c2)OCO3)c(=O)[nH]1	3%	-1%
CCOc1ccc(CCNC(=O)CCNC(=O)c2ccco2)cc1OCC	-3%	-24%
Cc1ccc(C)n1-c1cccc(NC(=O)c2ccccc2)c1	17%	?
CC1CC(C)CN(C(=O)C2CCC(CNc3c(N4CCCCC4)c(=O)c3=O)CC2)C1 (stereo not given)	1%	-17%
COc1cc(/C=C2\SC(=S)N(N3CCOCC3)C2=O)ccc1O	3%	-14%
Cc1ccc(NC(=O)NC(=O)CSc2nnnn2C)c(C)c1	18%	-14%
